Source: PubChem BioAssay
VDR inhibitor – blocks the human vitamin D receptor | 400,000 tested, 0.93% active | Potency, µM, without a hit: max response, negative = inhibition, most hits filed as inhibitors | P11473 | VDR-SRC2-3 peptide fluorescence polarization, 2 h; active = well fitted inhibition curve with a large enough effect; inconclusive = small, poorly fitted or top-dose-only effect, or another doubt; inactive = no such curve, though single readings can be large or run the other way; note: series mostly up to about 120 µM
Target sequence (P11473 whole entry, looked up): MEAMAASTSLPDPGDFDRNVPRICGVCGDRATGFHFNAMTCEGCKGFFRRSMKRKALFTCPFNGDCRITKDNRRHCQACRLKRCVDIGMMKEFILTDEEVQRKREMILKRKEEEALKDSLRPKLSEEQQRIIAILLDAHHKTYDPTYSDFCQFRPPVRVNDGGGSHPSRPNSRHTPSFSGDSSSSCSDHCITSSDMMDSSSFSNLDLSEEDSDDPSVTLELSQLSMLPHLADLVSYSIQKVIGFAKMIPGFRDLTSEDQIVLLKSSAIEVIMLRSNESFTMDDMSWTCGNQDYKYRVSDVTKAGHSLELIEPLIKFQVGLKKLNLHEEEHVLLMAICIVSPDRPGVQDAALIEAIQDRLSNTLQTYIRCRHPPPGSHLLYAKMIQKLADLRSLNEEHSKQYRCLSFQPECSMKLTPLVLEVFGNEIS
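FP read-out; VDR + SRC2-3 coactivator peptide; 23 nl compound by pintool; 2 h RT incubation; reagents held at 4 deg C, protected from light.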
Starred values were filed as active, the others as inactive; ? = inconclusive; & = joins results of further samples. % is set by controls: 0 for no effect and ±100 for the full control effect; potency is the fitted concentration of half-maximal effect. A portion of the library; rates above refer to the full screens.

SMILES	VDR inhibitor
COc1ccc(CCN(CC(=O)NC2CCCC2)C(=O)CCC(=O)Nc2cc(C)on2)cc1OC	11%
COc1ccc(S(=O)(=O)NCC(c2ccco2)N2CCN(c3ccccc3F)CC2)cc1C (stereo not given)	4%
NS(=O)(=O)c1cccc(NC(=O)Cc2ccc(Cl)c(Cl)c2)c1	?
COc1ccc2c(CNC3CCCCCC3)c(C(=O)O)n(Cc3cccc(F)c3)c2c1	-6%
Cc1ccc(CCNC(=O)C2CCCN(c3nc4ccccc4o3)C2)cc1 (stereo not given)	-9%
CCOC(=O)/C(=C/c1c(C)n(C)c2ccc([N+](=O)[O-])cc12)C(C)=O	?
O=C(CN(C(=O)CNC(=O)c1cccs1)c1cccc(F)c1)NC1CCCCC1	-3%
Cc1cc2ccccc2n1CCNC(=O)C1CCCC1	-5%
O=C(COC(=O)C1CCN(c2ccc(C(F)(F)F)cn2)CC1)Nc1ncc(Cl)cc1Cl	-4%
Cc1ccc(C(=O)Nc2ccc(C(=O)NCC3CCCO3)cc2)cc1 (stereo not given)	7%
Cc1c(Cl)cccc1NC(=O)CC1Oc2ccccc2NC1=O (stereo not given)	14%&6%
O=C(O)CNC(=O)/C(=C\c1ccco1)NC(=O)c1ccco1	-13%
C/C(=N\NC(=O)c1nnn(-c2nonc2N)c1CN(C)c1ccccc1)c1cccnc1	-20%
CCOc1ccccc1N1CN(CC)CNC1=S	1%
CCOc1ccc(CNC(=O)C2CCN(C3=NS(=O)(=O)C(c4ccc(C)cc4)=C3CC)CC2)cc1	8%
COc1ccc(CN(C(=O)Cc2c[nH]c3ccccc23)C(C(=O)NC2CCCCC2)c2ccc(C)o2)cc1 (stereo not given)	2%
CCCC/C(O)=C1\C(=O)CC(C)(C)CC1=NCCCCCC(=O)O	-7%
O=C(c1cccc(F)c1)N1CCC(N2CCCCCC2)CC1	6%
COc1ccc(-c2cc3ccc(O)c(CN4CCOCC4)c3oc2=O)cc1OC	4%
CCn1cc(S(=O)(=O)c2cc(C)cc(C)c2)c(=O)c2cc(F)c(N3CCCC3)cc21	1%
CCc1ccc(NC(=O)CCC(=O)N2CCSc3ccccc32)cc1	-11%
CC1=C(C)C(=O)N(C(C)CCc2ccccc2)C1=O (stereo not given)	-8%
Cc1ccc(Cl)cc1N1CCN(CC(=O)NC2CCCc3ccccc32)CC1 (stereo not given)	-1%
CC1CCCC(C)N1S(=O)(=O)c1ccc(NC(=O)CNCC2CCCO2)cc1 (stereo not given)	-14%
CC(=O)SCCC(=O)N1C(C)CCCC1C(=O)O (stereo not given)	16%
Cc1c(F)cccc1NC(=O)c1ccc2c(c1)CCN2S(C)(=O)=O	-6%
CN(C(=O)COC(=O)c1cccc(F)c1)c1ccccc1	?
CCCNC(=O)Cn1nc(C(F)(F)F)c2c1CCCC2	-12%
COCCSc1nnc(NC(=O)c2ccc(NC(C)=O)cc2)s1	-21%
Cc1nc2c(sc3nc(N4CCOCC4)c4c(c32)CC(C)(C)OC4)c(-c2ccccc2)c1C(=O)O	-9%
COc1ccc(NC(=O)COC(=O)CCC2CCCC2)c(OC)c1	8%
CNc1snc(C)c1C(=O)OC(C)C(=O)Nc1ccccc1 (stereo not given)	-16%
O=C(NCc1ccccc1)c1cc(S(=O)(=O)N2CCOCC2)ccc1F	26%
OC[C@@H](O)COc1cccc2ccccc12	-11%
O=C1c2cccc3cccc(c23)C(=O)N1c1ccncc1	0%
COc1ccc(NC(=O)CCNS(=O)(=O)c2cccc3nsnc23)c(OC)c1	5%
Cc1cccc(C=NOCCc2ccccc2)n1	10%
Cc1cccn2c(=O)c(C=O)c(Nc3ccccc3)nc12	7%
COc1ccc(C(=O)N2CCC3(CCCN(c4cccc(-c5ccccc5)c4)C3)CC2)cc1	-20%
CCC(C)NC(=O)Cc1ccc(NC(=O)N2CCCCc3ccccc32)cc1 (stereo not given)	-2%

Arranged by the number under VDR inhibitor (smallest number first): 5 from the list above
| compound | VDR inhibitor |
| --- | --- |
| CCCNC(=O)Cn1nc(C(F)(F)F)c2c1CCCC2 | -12% |
| CC1=C(C)C(=O)N(C(C)CCc2ccccc2)C1=O (stereo not given) | -8% |
| COc1ccc(NC(=O)CCNS(=O)(=O)c2cccc3nsnc23)c(OC)c1 | 5% |
| COc1ccc(NC(=O)COC(=O)CCC2CCCC2)c(OC)c1 | 8% |
| CC(=O)SCCC(=O)N1C(C)CCCC1C(=O)O (stereo not given) | 16% |

4 compounds out of the list, ordered by molecular weight, high to low.
SMILES	VDR inhibitor
COc1ccc(NC(=O)CCNS(=O)(=O)c2cccc3nsnc23)c(OC)c1	5%
CN(C(=O)COC(=O)c1cccc(F)c1)c1ccccc1	?
O=C1c2cccc3cccc(c23)C(=O)N1c1ccncc1	0%
Cc1cccc(C=NOCCc2ccccc2)n1	10%

Five of the compounds above, comma-delimited.
SMILES,VDR inhibitor
CC1=C(C)C(=O)N(C(C)CCc2ccccc2)C1=O (stereo not given),-8%
Cc1ccc(Cl)cc1N1CCN(CC(=O)NC2CCCc3ccccc32)CC1 (stereo not given),-1%
CC1CCCC(C)N1S(=O)(=O)c1ccc(NC(=O)CNCC2CCCO2)cc1 (stereo not given),-14%
CC(=O)SCCC(=O)N1C(C)CCCC1C(=O)O (stereo not given),16%
Cc1c(F)cccc1NC(=O)c1ccc2c(c1)CCN2S(C)(=O)=O,-6%

Later entries
SMILES	VDR inhibitor
O=C(NCc1cccnc1)Nc1ccccc1	-4%
COCC(=O)N1CCC2(CC1)CN(c1ccc(-c3ccccc3)cc1)C2	-8%
Cc1ccc(C(=O)N2c3ccccc3OCC2C)cc1 (stereo not given)	1%
Cc1ccc(C(=O)Nc2ncccc2O)o1	12%
CCc1ccc2nc(N(Cc3cccnc3)C(C)=O)sc2c1	10%
COc1cc(CNn2cn[nH]c2=S)ccc1OCC(=O)NC(C)(C)C	-2%
CC(=O)C1=C(O)C(=O)N(C)C1c1ccccc1[N+](=O)[O-] (stereo not given)	?
COc1ccc(Oc2ncc3nc(C)c(=O)n(-c4ccc(OC)cc4)c3n2)cc1	11%
C/C(=N\NC(=O)c1ccc(Cl)cc1)c1ccccn1	20%
Cc1ncoc1C(=O)Nc1ccccc1-c1ccccc1	-14%
O=C(N/N=C/c1ccccc1[N+](=O)[O-])c1ccc2c(c1)OCCO2	-13%
Cc1ccc(-c2nc3scc(CCNC(=O)c4cccc(Br)c4)n3n2)cc1	-2%
c1ccc(Nc2c(-c3c[nH]c4ccccc34)nc3ccccn23)cc1	-12%
O=C(C[n+]1ccc(C(=O)c2ccccc2)cc1)Nc1ccc(C(F)(F)F)cc1	-24%
CC(=O)c1sc(NC(=O)c2ccc(F)c(F)c2)nc1C	0%
CN(C)c1ccc(N/C(=N\S(=O)(=O)c2cccs2)c2ccccc2)cc1	-16%
O=C(NCC1CCCO1)c1onc(CSc2cccc3ccccc23)c1C(=O)O (stereo not given)	?
O=C(C1=C[C@@H](c2csc3ccccc23)C[C@@H](OCc2ccc(CO)cc2)O1)N1CCN(Cc2ccc3c(c2)OCO3)CC1	-25%
Cc1cccc(N(CC(=O)NCCSCc2ccccc2)S(C)(=O)=O)c1	-4%
CC1(C)CC(=O)C=C(N2CCOCC2)C1	-1%
CCOc1cc(/C=N/Nc2ncnc(Cl)c2N)ccc1O	-25%
CSCCC1NC(=O)C(C(C)=Nc2ccccc2)=C1O (stereo not given)	5%
COc1ccc(CN2CCC(CNC(=O)NC3CCCCC3)CC2)cc1	-9%
Nc1cc([N+](=O)[O-])ccc1OCc1ccccc1	-19%
Cc1ccc(C2=Nc3ccccc3SC(c3cccc([N+](=O)[O-])c3)C2)cc1 (stereo not given)	-29%
O=C(Nc1ccccc1)c1ccncc1	7%
O=C(Nc1ccc2c(c1)OCO2)c1cccc2c1C(=O)N(Cc1cccnc1)C2	4%
O=C(NCC1CCCCC1)c1cccnc1	13%
Cc1cc2cc3c(cc2nc1SCC(=O)O)CCC3	-13%
CC(=O)Nc1ccc(NC(=O)c2ccnn2C)cc1	-4%
COc1ccccc1NC(=O)Cn1cc(S(=O)(=O)Cc2ccccc2)c2ccccc21	13%
CC(C)C[C@H](NC(=O)[C@H](CC(C)C)NC(=O)[C@H](CCC(N)=O)NC(=O)[C@H](CO)NC(=O)[C@@H]1CCCN1C(=O)[C@H](CO)NC(=O)[C@H](CO)NC(=O)[C@@H](NC(=O)[C@H](Cc1cnc[nH]1)NC(=O)[C@H](CCC(=O)O)NC(=O)[C@H](Cc1ccc(O)cc1)NC(=O)[C@H](CCCCN)NC(=O)[C@H](CCC(N)=O)NC(=O)[C@H](Cc1ccc(O)cc1)NC(=O)[C@H](CC(=O)O)NC(=O)[C@@H](NC(=O)[C@@H]1CCCN1C(=O)[C@H](CC(=O)O)NC(=O)[C@H](CC(N)=O)NC(=O)[C@H](CC(=O)O)NC(=O)CNC(=O)[C@H](CC(=O)O)NC(=O)[C@@H]1CCCN1C(=O)[C@H](CCC(N)=O)NC(=O)[C@H](Cc1ccc(O)cc1)NC(=O)[C@H](C)NC(=O)[C@H](Cc1c[nH]c2ccccc12)NC(=O)[C@H](Cc1ccccc1)NC(=O)[C@@H](NC(=O)[C@@H](N)CO)[C@@H](C)O)[C@@H](C)O)[C@@H](C)O)C(=O)N[C@@H](C)C(=O)N1CCC[C@H]1C(=O)NCC(=O)N[C@@H](CC(=O)O)C(=O)N[C@@H](Cc1ccc(O)cc1)C(=O)O	-4%
C#CCOc1ccc(Br)cc1C(c1c(C)[nH][nH]c1=O)c1c(C)[nH][nH]c1=O	-21%
Cc1ccccc1S(=O)(=O)N1[C@@H](c2cccc(Cl)c2)C(C(=O)O)=CC[C@H]1c1ccc(Cl)cc1	-9%
CC(C)CN(C(=O)COC(=O)CSc1ccc([N+](=O)[O-])cc1)C1CCS(=O)(=O)C1 (stereo not given)	?
Cc1ccc2cc(CN(CCN(C)C)C(=O)Nc3ccc(Cl)cc3)c(=O)[nH]c2c1	-7%
CC(=O)c1ccc(OCC(=O)Nc2ccc3c(c2)CCC3)cc1	-13%
N#C/C(=C/c1ccc(Sc2nc3ccccc3[nH]2)o1)c1cccc(F)c1	11%
CCC(C)n1c(C)cc(=O)n1C(C)CC (stereo not given)	10%
COCCNC(=O)c1cccc2c1C(=O)c1ccc(N3CCOCC3)cc1S2(=O)=O	-11%
CN(CCOc1ccccc1)C(=O)c1cc(S(=O)(=O)N2CCOCC2)ccc1Cl	-8%
CCCc1cc(=O)[nH]c(SCC(=O)Nc2ccc(C)c(S(=O)(=O)N3CCCCC3)c2)n1	-4%
CCOC(=O)CC1C(=O)NCCN1S(=O)(=O)c1ccccc1Cl (stereo not given)	13%
Nc1nccnc1C(=O)OCC(=O)NC1CCCc2ccccc21 (stereo not given)	9%
Cn1c(C2CCCCC2)nc2ccccc21	11%
COc1ccc(OC)c(CCNC(=O)C(=O)Nc2ccc3nc4n(c(=O)c3c2)CCCCC4)c1	-5%
CCC(NC(=O)c1ccccc1NC(=O)C(C)(C)C)C(=O)N1CC(C)OC(C)C1 (stereo not given)	9%
O=c1c2ccccc2nc2n1CCS2	5%
COc1ccc(CNC(=O)C[C@H]2C[C@H](C(=O)N3CCCCC3)[C@@]3(C)c4[nH]c5ccc(Cl)cc5c4CCN3C2=O)cc1OC	?
O=C(O)CCc1ccc(-c2ccccc2)n1Cc1ccco1	-11%
O=C(O)c1cc(S(=O)(=O)N2CCN(S(=O)(=O)c3ccc4ccccc4c3)CC2)ccc1Br	6%
COc1ccc(Cn2c(N)c(S(=O)(=O)c3cccs3)c3nc4ccccc4nc32)cc1	-16%
O=C(COc1ccc(F)cc1Br)NCc1nnc2ccccn12	-8%
Cn1nc(-c2ccc(Cl)cc2)cc1NC(=O)CCCC(=O)O	-13%
CCNC(=S)NNC(=O)c1cc(-c2ccc(OCC)cc2)nc2ccccc12	27%
N#C/C(=C\c1cccs1)C(=O)NCC1CCCO1 (stereo not given)	4%
CC(=O)N1CCC(C(=O)Nc2ccccc2)(N(Cc2ccccc2)C(=O)c2cccnc2)CC1	10%
COC(=O)c1c(NC(=O)C2=COCCO2)sc(C)c1C	0%
CCOCCCNc1nc(C)nc2c1nnn2Cc1c(F)cccc1Cl	2%
O=C(CCc1ccccc1)N1CCN(c2ccccn2)CC1	-12%
Remaining list, next part.
SMILES	VDR inhibitor
CCc1nn(C(C)C(=O)N2CCN(c3cccc(C(F)(F)F)c3)CC2)c(=O)c2cc3occc3n12 (stereo not given)	3%
COC(=O)c1sccc1NC(=O)Nc1ccccc1F	0%
CCN(CCS(=O)(=O)c1ccc(Br)cc1)Cc1nc2ccccc2c(=O)[nH]1	-25%
N#Cc1cc2cc3c(cc2nc1N1CCOCC1)OCO3	-6%
Cc1ccc2c(Cl)cc(Cl)c(OCC(=O)Nc3cccc(S(N)(=O)=O)c3)c2n1	-20%
O=C(COC(=O)CNC(=O)c1ccccc1)NCCc1ccccc1	2%
O=C1Cc2cc(S(=O)(=O)NCc3ccc(F)cc3)ccc2N1	-8%
N#CC(C(=O)c1ccc(S(=O)(=O)N2CCCCCC2)cc1)c1nc2ccccc2[nH]1 (stereo not given)	-3%
CCn1c(SCC(=O)NCCc2ccccc2)nc2sc3c(c2c1=O)CCN(C)C3	2%
CS(=O)(=O)N(CCc1ccccc1)CC(=O)NCc1ccccn1	-6%
CC(=O)c1ccc(N2C(=NC(=O)CCC3CCCC3)SC3CS(=O)(=O)CC32)cc1 (stereo not given)	12%
CCOc1ccccc1-n1c(SCC(=O)NC2CCCC2)nnc1-c1ccoc1C	-1%
Cc1cccc(C)c1N1CCN(c2cc(Cl)nc(N)n2)CC1	-9%
Cc1cc(N)c(C)c([N+](=O)[O-])c1C	0%
